High-throughput results as filed in PubChem BioAssay.
VDR inhibitor = Inhibitors of the vitamin D receptor (VDR): qHTS. AID 504847, 2011. Potency, µM, for the others: max response, negative = inhibition, most hits filed as inhibitors. 400,000 compounds, 0.93% hits. Vitamin D3 receptor (Homo sapiens), P11473. VDR-SRC2-3 peptide fluorescence polarization, 2 h; active = well fitted inhibition curve with a large enough effect; inconclusive = small, poorly fitted or top-dose-only effect, or another doubt; inactive = no such curve, though single readings can be large or run the other way; also: series mostly up to about 120 µM
Target sequence (P11473 whole entry, looked up): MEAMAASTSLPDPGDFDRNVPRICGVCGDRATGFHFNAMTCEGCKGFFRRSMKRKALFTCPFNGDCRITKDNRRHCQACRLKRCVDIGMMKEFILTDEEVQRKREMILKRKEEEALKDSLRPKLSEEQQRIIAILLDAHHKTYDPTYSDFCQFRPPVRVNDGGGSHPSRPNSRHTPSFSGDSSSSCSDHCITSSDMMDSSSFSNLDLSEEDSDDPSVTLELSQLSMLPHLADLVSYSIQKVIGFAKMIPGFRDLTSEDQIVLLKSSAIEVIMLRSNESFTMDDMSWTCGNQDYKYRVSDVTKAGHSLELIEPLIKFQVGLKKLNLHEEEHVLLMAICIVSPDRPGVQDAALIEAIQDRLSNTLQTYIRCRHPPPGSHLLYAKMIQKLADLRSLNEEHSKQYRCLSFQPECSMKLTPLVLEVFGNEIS
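Reagent solutions, kept cold and dark, are dispensed first; compounds are then pinned in at 23 nl, plates briefly spun, and incubated 2 h at ambient temperature. Inhibition of VDR–SRC2-3 peptide binding is read by fluorescence polarization.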
Starred values were filed as active, the others as inactive; ? = inconclusive; & = joins results of further samples. % is scaled to controls: 0 for no effect and ±100 for the full control effect; potency is read from the fitted curve at half-maximal effect. These rows are one share of the data; rates above refer to the full screens.

The first six compounds (preview)
No.	VDR inhibitor	canonical_smiles
1	-10%	Cc1onc(-c2ccccc2Cl)c1C(=O)Nc1ccc(S(=O)(=O)NCC2CCCO2)cc1 (centres undefined)
2	3%	Cc1onc(-c2ccccc2)c1C(=O)Nc1cccc(C#N)c1
3	2%	O=C(COc1ccccc1)Nc1cccc(-c2nc3ccccc3[nH]2)c1
4	-6%	Cc1ccc(C)c(NC(=O)CSc2c(C)n[nH]c2C)c1
5	-1%	COc1cc(S(=O)(=O)N(Cc2cccnc2)Cc2cccc(OC)c2OC)ccc1-n1cnnn1
6	-20%	CC(=O)Nc1cccc(NC(=O)CSc2nc(C)c(C)c(C)c2C#N)c1

The list itself, repeating the preview:
No.	VDR inhibitor	canonical_smiles
1	-10%	Cc1onc(-c2ccccc2Cl)c1C(=O)Nc1ccc(S(=O)(=O)NCC2CCCO2)cc1 (centres undefined)
2	3%	Cc1onc(-c2ccccc2)c1C(=O)Nc1cccc(C#N)c1
3	2%	O=C(COc1ccccc1)Nc1cccc(-c2nc3ccccc3[nH]2)c1
4	-6%	Cc1ccc(C)c(NC(=O)CSc2c(C)n[nH]c2C)c1
5	-1%	COc1cc(S(=O)(=O)N(Cc2cccnc2)Cc2cccc(OC)c2OC)ccc1-n1cnnn1
6	-20%	CC(=O)Nc1cccc(NC(=O)CSc2nc(C)c(C)c(C)c2C#N)c1
7	-1%	CC1(C)OC2CC3C4CC(F)C5=CC(=O)CC[C@@]5(C)C4C(O)C[C@@]3(C)[C@]2(C(=O)CO)O1 (some centres undefined)
8	-15%	CCOC(=O)C1(CCCc2ccccc2)CCN(C(=O)CSC)CC1
9	3%	CSc1cccc(NC(=O)Cn2ncn3c(cc4ccccc43)c2=O)c1
10	-3%	COc1cccc(Cn2cc(S(=O)(=O)c3ccc(C)cc3)c(=O)c3cc4c(cc32)OCO4)c1

7 entries from above in another layout:
entry	Compound	VDR inhibitor
2	Cc1onc(-c2ccccc2)c1C(=O)Nc1cccc(C#N)c1	3%
3	O=C(COc1ccccc1)Nc1cccc(-c2nc3ccccc3[nH]2)c1	2%
4	Cc1ccc(C)c(NC(=O)CSc2c(C)n[nH]c2C)c1	-6%
5	COc1cc(S(=O)(=O)N(Cc2cccnc2)Cc2cccc(OC)c2OC)ccc1-n1cnnn1	-1%
6	CC(=O)Nc1cccc(NC(=O)CSc2nc(C)c(C)c(C)c2C#N)c1	-20%
7	CC1(C)OC2CC3C4CC(F)C5=CC(=O)CC[C@@]5(C)C4C(O)C[C@@]3(C)[C@]2(C(=O)CO)O1 (some centres undefined)	-1%
8	CCOC(=O)C1(CCCc2ccccc2)CCN(C(=O)CSC)CC1	-15%

More records follow:
No.	VDR inhibitor	canonical_smiles
11	-18%	COc1cc(NC(=O)[C@H]2CCCN2S(=O)(=O)c2cccc3cccnc23)cc(OC)c1OC
12	-19%	Cc1nc(-c2nc(CC(=O)NNC(=O)c3ccc(Cl)cc3)cs2)cs1
13	8%	CCC(CC)C(=O)Nc1cccc(-c2nc3cccnc3s2)c1C
14	-9%	O=[N+]([O-])c1ccc(S(=O)(=O)Nc2ccc(-c3ccc(N4CCOCC4)nn3)cc2)cc1
15	-3%	O=C(CC1SCCNC1=O)Nc1cccc(C(F)(F)F)c1 (centres undefined)
16	-8%	CCC(C)(C)n1nnnc1C(c1cc2cc3c(cc2[nH]c1=O)OCO3)N1CCCCC1 (centres undefined)
17	0%	S=C(NCCc1ccccc1)Nc1cnc2ccccc2c1
18	9%	CCC(C)(C(=O)NC1CCCC1)N(C(=O)CNC(C)=O)c1ccc(C)cc1 (centres undefined)
19	-17%	COc1ccccc1NC(=O)c1ccc(-c2ccc(Br)cc2)o1
20	-8%	COc1cc(NC(=O)c2cc3c(=O)n(C)c4ccccc4c3n2C)cc(OC)c1OC
21	-1%	CN(CC(=O)N1CC(=O)N(CCc2ccccc2)C(=O)C1)S(=O)(=O)c1cccc2nsnc12
22	10%	COc1ccc(CNC(=O)CCc2c(C)nn(-c3ccc(N4CCCCC4)nn3)c2C)cc1
23	0%	COCCN(CC(=O)Nc1ccccc1C(F)(F)F)C(=O)c1ccc(-n2cccn2)cc1
24	?	CCOC(=O)CSc1[nH]c2cc(OC)ccc2c1[N+](=O)[O-]
25	5%	CC(=O)C1=NOC(CNc2ncc(C(F)(F)F)cc2Cl)C1 (centres undefined)
26	15%	O=C(N[C@@H]1C/C=C\C[C@H](CC(=O)N(CCO)Cc2ccccc2)C(=O)N[C@@H](Cc2c[nH]c3ccccc23)COC1=O)OCC1c2ccccc2-c2ccccc21
27	9%	COc1ccc2c(c1)[nH]c(=O)c1sc3ccccc3c12
28	-7%	COc1ccc(NC(=O)CNc2cccc(S(=O)(=O)N3CCCCCC3)c2)c([N+](=O)[O-])c1
29	10%	Cc1cc2nn(-c3ccccc3)nc2cc1NC(=O)c1cccs1
30	8%	CC1CN(C(=O)CCC(=O)NCCCN2CCN(Cc3ccccc3)CC2)c2cc(Cl)ccc2O1 (centres undefined)
31	-17%	CC(=O)Nc1cccc(NC(=O)CS(=O)(=O)c2cn(CC(=O)N(C(C)C)C(C)C)c3ccccc23)c1
32	10%	Cc1nc2c(C(=O)N3CCCCC3)cnn2c(C)c1Cc1ccccc1F
33	-5%	CC(=O)c1ccccc1NC(=O)COC(=O)CCC1CCCC1
34	4%	CCOc1ccc(C(=O)Nc2cc(S(=O)(=O)Nc3ccccc3Cl)ccc2N2CCOCC2)cc1
35	-8%	CC1CC(C)CN(C(=O)c2ccc(N3CC4CC(C3)c3cccc(=O)n3C4)c([N+](=O)[O-])c2)C1 (centres undefined)
36	8%	COc1ccc(N2CCN(C(=O)c3cnc(SC)nc3C)CC2)cc1
37	-9%	Cc1cc(C(F)F)n2nc(C(=O)Nc3sc4c(c3C#N)CCC(C)C4)nc2n1 (centres undefined)
38	1%	C=CCN1C(=O)c2ccc(C(=O)N(CCOC)c3c(N)n(CCCC)c(=O)[nH]c3=O)cc2C1=O
39	1%	CN(C)S(=O)(=O)c1cccc(NC(=O)CN2C(=O)NC(Cc3ccccc3)C2=O)c1 (centres undefined)
40	4%	CCN1CCN(C(=O)CCNC(=O)Cn2cnc3ccccc3c2=O)CC1
41	12%	O=S(=O)(c1ccc(Br)cc1)N1CCC(c2nc3ccccc3[nH]2)CC1
42	-17%	Cc1cccc(C(=O)OCC(=O)NCc2ccco2)c1
43	-61%	Cc1ccc(C)c(NC(=O)CCc2c(C)nn(-c3ccc(N4CCCCC4)nn3)c2C)c1
44	?	CCOC(=O)C1CCN(C(=O)c2ccccc2NC(=O)c2ccc(Cl)cc2)CC1
45	2%	CCOc1ccc(C(=O)Nc2ccc(S(=O)(=O)Nc3nc(C)cc(C)n3)cc2)cc1OC
46	-5%	CC1CCCCN1C(=O)Cn1nnc(-c2cccnc2)n1 (centres undefined)
47	-25%	CC(C)(C)c1ccc(C2=CC(c3ccccc3)n3ncnc3N2)cc1 (centres undefined)
48	4%	Cn1cnnc1SCC(=O)c1ccc2c(c1)OCO2
49	9%	CCOc1ccccc1NC(=O)/C=C/c1ccc(S(=O)(=O)N2CCOCC2)cc1
50	-12%	CCCN(CC1CC1)C(=O)CSc1ncnc2sc(C)c(C)c12
51	16%	CCN(CC)C(=O)CSc1nc2c(sc(=S)n2-c2ccccc2OC)c(=O)n1-c1ccccc1
52	-5%	C#CCOCCOCCOCCNc1nc(N2CCN(C(=O)[C@H](C(C)C)n3cc(CCO)nn3)CC2)nc(N2CCN(C(=O)[C@H](C)n3cc(CCCN=C(N)N)nn3)CC2)n1
53	0%&-1%	O=C1OCCN1C(=O)[C@H]1[C@H](c2ccccc2)C(c2cccc(Cl)c2)=NN1c1ccccc1
54	4%	Cc1ccc(OCCC(=O)OCC(=O)N2c3ccccc3CC2C)cc1 (centres undefined)
55	-3%	CC(=O)c1cccc(CN2CCC(n3nccc3NC(=O)CCc3ccccc3)CC2)c1
56	2%	COCC(C)N=Cc1c(O)[nH]c2ccccc12 (centres undefined)
57	-18%	O=C(c1ccc(Cl)c(S(=O)(=O)N2CCOCC2)c1)N1CCCCC1
58	-20%	COCC(=O)n1nc(-c2ccc(C)cc2)nc1NCc1ccc(F)cc1
59	-8%	Cc1cccc(N=C2NC(=O)/C(=C/c3cccnc3)S2)c1
60	2%	Cc1cc(C([O-])=C(C(=S)Nc2ccccc2)[n+]2ccccc2)c(C)n1-c1ccccc1

(listing goes on)
No.	VDR inhibitor	canonical_smiles
61	16%	O=C(Nc1cccc2ccccc12)C1CCN(C(=O)Cc2ccccc2)CC1
62	?	CCOC(=O)c1ccc(N2C(=O)CC(C(=O)OC)=C2C)cc1
63	0%	CC(C)c1cccc(C(C)C)c1NC(=S)Nc1cccc(Cl)c1
64	4%	CCn1c(CCNC(=O)c2cccs2)nnc1SCC(=O)Nc1ccc(Cl)cc1
65	5%	CCC(=O)NC(C)c1cc(Cl)c2cccnc2c1O (centres undefined)
66	-9%	O=C(NCCc1nnc2ccc(NCC3CCCO3)nn12)c1ccccc1 (centres undefined)
67	-2%	CCOc1ccc(NC(=O)CN(C)C(=O)C2COc3ccccc3O2)cc1OCC (centres undefined)
68	2%	O=C1CC(C(=O)Nc2cccc(Cl)c2)n2ncnc2N1 (centres undefined)
69	-4%	O=c1c(-c2ccccc2)nc2cnc(Oc3ccccc3)nc2n1Cc1cccs1
70	2%	COc1ccccc1CNCC(=O)Nc1ccc(C#N)cc1
71	8%	O=C(/C=C/C(=O)N1CCc2ccccc2C1)N1CCc2ccccc2C1
72	2%	Cc1cc(C(F)F)nn1CC(=O)N1CCSCC1
73	4%	CC(Sc1nnc(CNC(=O)c2ccco2)n1C)C(=O)Nc1nccs1 (centres undefined)
74	24%	O=C(Nc1ccc(F)cc1)C(c1ccccc1)N1CCN(CC(=O)N2CCOCC2)CC1 (centres undefined)
75	-10%	COc1cc(NS(=O)(=O)c2ccc(NC(=S)NC(=O)c3ccc(F)cc3)cc2)nc(OC)n1
76	4%	COc1cccc(CNS(=O)(=O)c2ccc(S(=O)(=O)N3CCCC3)cc2)c1
77	-10%	CN(Cc1ccccc1)C(=O)CCS(=O)(=O)c1ccc2c(c1)NC(=O)CS2
78	-7%	O=C1CCN(CCc2ccccc2)CCN1C(CSc1ccc(Br)cc1)Cc1ccccc1 (centres undefined)
79	10%	COc1ccc(OC)c(NC(=O)C2CCN(C(=O)c3cccs3)CC2)c1
80	-7%	COc1ccc(CNC(=S)NCc2ccc(F)cc2)cc1
81	-1%	COc1ccccc1OCCNC(=O)CSC(=S)N1CCCC1
82	-8%	Cc1nc(Nc2ccc(C(=O)O)cc2)nc(Nc2ccc(C(=O)O)cc2)c1[N+](=O)[O-]
83	-3%	CC(=O)N1N=C(c2cccs2)CC1c1cc2cc(C)ccc2nc1Cl (centres undefined)
84	-1%	O=C(O)CCC(=O)N1CC=C(c2ccccc2)CC1
85	-17%	Cc1cc(Cl)c(OCCCCN2CCOCC2)c(Br)c1
86	-11%	Cc1nc(Nc2nc(CSc3nc4ccccc4[nH]3)cc(=O)[nH]2)nc2ccccc12
87	9%	O=C1OCCN1CCN(CN1C(=O)CCC1=O)CN1C(=O)CCC1=O
88	14%	CCOc1ccccc1N1CCN(C(=O)Nc2ccc(F)c(Cl)c2)CC1
89	2%	COc1ccc(NS(=O)(=O)c2cccc(C(=O)NNC(=O)COc3ccccc3)c2)cc1
90	-5%	CCOc1ccc(CCNC(=O)COC(=O)c2cccc(OC)c2O)cc1OCC
91	-6%	COc1cccc(/C=C/C(=O)OCC(=O)NCc2ccc3c(c2)OCO3)c1
92	-7%	CC(C)(C)c1ccc(C(=O)N2CCC(c3nc4ccccc4o3)CC2)cc1
93	21%	CC(=O)Nc1cccc(NC(=O)c2cc3c(=O)n4cccc(C)c4nc3n2C)c1
94	-1%	Cc1ccnc(NC(=O)c2ccc(COc3ccc(Cl)cc3)o2)c1
95	11%	CC(C)c1ccc(NC(=O)c2cc(S(=O)(=O)NCCC3=CCCCC3)ccc2F)cc1
96	3%	Cc1oc(-c2ccccc2F)nc1CN1CCC(C(=O)NC2CCCc3ccccc32)CC1 (centres undefined)
97	12%	CC(C)NS(=O)(=O)c1ccc(OCC(=O)N2CCCC2)c(Cl)c1
98	-12%	CC(C)(C)C(=O)OCCNc1nc(-c2ccccc2)nc2ccccc12
99	-5%	O=C(Nc1cc([N+](=O)[O-])ccc1N1CCCC1)c1ccco1
100	1%	O=C(NCCc1ccccc1)C(c1ccncc1)N(C(=O)c1csnn1)C1CC1 (centres undefined)
101	-12%	CCCCCCCCCOC(=O)CNc1nc(C#N)nc(NCC(=O)OCCCCCCCCC)n1
102	-5%	COc1ccc(CN(C)C(=O)c2cccc(NS(=O)(=O)c3ccccc3)c2)cc1F
103	2%	CCOc1ccc(CNC(=O)C2CCN(S(=O)(=O)c3c(C)noc3/C=C/c3ccc(C)cc3)CC2)cc1OC
104	14%	O=C(O)c1ccc2[nH]c3c(c2c1)CCCC3
105	-2%	CCOc1ccc(C2CC(=O)Nc3nc(SCc4ccccc4C)[nH]c(=O)c32)cc1OC (centres undefined)
106	-12%	Cc1ccc2cccc(Oc3ncnc4scc(-c5ccccc5)c34)c2n1
107	4%	CC(C)Cn1cc(NC(=O)N2CCN(c3cccc(C(F)(F)F)c3)CC2)c2ccccc2c1=O
108	?	c1ccc(-c2n[nH]c(-c3ccccc3)c2-c2nc3ccccc3[nH]2)cc1
109	4%	C/C(Cl)=C/Cn1c(SCCN2CCOCC2)nc2c1c(=O)[nH]c(=O)n2C
110	1%	Cn1c2ccc(F)cc2c2ncn(Cc3ccco3)c(=O)c21

(listing goes on)
No.	VDR inhibitor	canonical_smiles
111	2%	CSCCC(NC(=O)/C(=C/c1ccco1)NC(=O)c1ccc(Br)o1)C(=O)O (centres undefined)
112	3%	CC1CCN(c2nc3ccc(C(=O)NCc4ccc(Cl)cc4)cc3s2)CC1
113	?	Cc1ccc(N(CC(=O)NCc2ccc(F)cc2)C(=O)CCC(=O)Nc2ccccn2)cc1C
114	1%	CCCCn1c(CCn2nc(C)c(Br)c2C)n[nH]c1=S
115	15%	O=[N+]([O-])c1ccc(-c2nc(NCc3cccnc3)c3ccccc3n2)cc1
116	-4%	Cc1cc(C(=O)N2CCN(CCc3ccccc3)CC2)no1
